Source: PubChem
ID4 binder = binds human ID4 protein on microarray; 31,000 compounds, 1.2% hits; P47928; small molecule microarray, Flag-ID4 binding, fluorescence F/B; calls only;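 active means spot signal over background at p below 0.07 in all four prints; compounds were printed on slides so no solution concentration is given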;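 further: a binder raises fluorescence above local background on the spot; about 2 pmol printed per array spot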
Target sequence (P47928 whole entry, looked up): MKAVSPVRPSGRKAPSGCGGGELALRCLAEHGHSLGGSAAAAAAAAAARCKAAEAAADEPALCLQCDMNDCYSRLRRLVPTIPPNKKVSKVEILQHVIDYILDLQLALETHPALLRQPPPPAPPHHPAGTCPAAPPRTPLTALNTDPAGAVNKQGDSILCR
Calls only; i = inactive.

SMILES	ID4 binder
CC1OC(n2cnc3c(N)ncnc32)C[C@H]1O (stereo partly drawn)	i
CN1CCN(CC(=O)Nc2ccc([N+](=O)[O-])cc2C(=O)c2ccccc2)CC1	i
CCCCCCCCCOc1ccc2[nH]cc(CCN)c2c1	i
CSc1ncccc1C1=N/C(=C\N(C)C)C(=O)O1	i
C#CCN(C)[C@H](C)Cc1ccccc1	i
c1ccc2c(c1)[I+]c1ccccc1-2	i
O=c1c2ccccc2nc(CNCC2CCCO2)n1-c1ccc(F)cc1 (stereo not drawn)	i
CC(C)(O)[C@H]1O[C@H]2CC[C@@]3(C)[C@@](O)(CC[C@H]4Cc5c([nH]c6ccccc56)[C@@]43C)C2=CC1=O	i
Clc1cccc(SC2CCNCC2)n1	i
O=c1cccc2n1CC1CNC[C@H]2C1	i
COc1ccc(C[C@H]2NC[C@H](O)[C@H]2OC(C)=O)cc1	i
CN1Cc2c(ccc3c2OCO3)[C@@H]2[C@H]1c1cc3c(cc1C[C@@H]2O)OCO3	i
COc1c2c(cc3c1OCO3)CCN(C)C2	i
O=C1NCN(c2ccccc2)C12CCN(CC1COc3ccccc3O1)CC2 (stereo not drawn)	i
C=CC/C=C\C/C=C\CCCCCCCc1cc(O)cc(O)c1	i

Another view of part of the listing above:
Compound | ID4 binder
Clc1cccc(SC2CCNCC2)n1 | i
O=c1cccc2n1CC1CNC[C@H]2C1 | i

Additional compounds
SMILES	ID4 binder
NCC(=O)c1ccccc1	i
Cn1c2c(c3ccccc31)CCNCC2	i
N#Cc1c(Cl)cccc1Cl	i
NC(=O)CS(=O)C(c1ccccc1)c1ccccc1 (stereo not drawn)	i
Cn1c(=O)c2c(ncn2CCCl)n(C)c1=O	i
C[C@@H]1CN(C2CCC(C#N)(c3ccc(F)cc3)CC2)CC[C@]1(C(=O)O)c1ccccc1 (stereo partly drawn)	i
N#CC(C#N)=NNc1ccc(OC(F)(F)F)cc1	i
COC(=O)[C@@]12C(=O)C(C)C(=O)[C@]1(C)C(C)=C[C@H]1[C@]3(C)CC[C@H](OC(C)=O)C(C)(C)[C@H]3CC[C@@]12C (stereo partly drawn)	i
Cc1cc(C(F)F)n2nc(C(=O)Nc3ccc4c(C(F)(F)F)cc(=O)oc4c3)nc2n1	i
O=C1c2ccccc2-c2cccc3cccc1c23	i
N#Cc1nn(-c2c(Cl)cc(C(F)(F)F)cc2Cl)c(N)c1S(=O)C(F)(F)F (stereo not drawn)	i
O=C(CCCN1CCC(n2c(=O)[nH]c3ccccc32)CC1)c1ccc(F)cc1	i
N#Cc1cc2c(nc1SCc1ccccc1Br)C1CCN2CC1	i
C[C@@H]1O[C@@H](OC2CCC3(C)C4CCC5(C)C(C6=CC(=O)OC6)CCC5(O)C4CC[C@H]3C2)[C@H](O)[C@H](O)[C@H]1O (stereo partly drawn)	i

Filtered by structure, the compounds so far with a carbonyl joined to an NH by a bond outside any ring (3)
SMILES	ID4 binder
CN1CCN(CC(=O)Nc2ccc([N+](=O)[O-])cc2C(=O)c2ccccc2)CC1	i
NC(=O)CS(=O)C(c1ccccc1)c1ccccc1 (stereo not drawn)	i
Cc1cc(C(F)F)n2nc(C(=O)Nc3ccc4c(C(F)(F)F)cc(=O)oc4c3)nc2n1	i

Part of the list above in order of molecular weight, low to high:
SMILES	ID4 binder
N#Cc1c(Cl)cccc1Cl	i
O=C(CCCN1CCC(n2c(=O)[nH]c3ccccc32)CC1)c1ccc(F)cc1	i
N#Cc1nn(-c2c(Cl)cc(C(F)(F)F)cc2Cl)c(N)c1S(=O)C(F)(F)F (stereo not drawn)	i
Cc1cc(C(F)F)n2nc(C(=O)Nc3ccc4c(C(F)(F)F)cc(=O)oc4c3)nc2n1	i
COC(=O)[C@@]12C(=O)C(C)C(=O)[C@]1(C)C(C)=C[C@H]1[C@]3(C)CC[C@H](OC(C)=O)C(C)(C)[C@H]3CC[C@@]12C (stereo partly drawn)	i

2 records picked at random from the list so far:
SMILES	ID4 binder
O=C(CCCN1CCC(n2c(=O)[nH]c3ccccc32)CC1)c1ccc(F)cc1	i
Cc1cc(C(F)F)n2nc(C(=O)Nc3ccc4c(C(F)(F)F)cc(=O)oc4c3)nc2n1	i

A portion of the library. The share of hits here may be higher or lower than overall.
